VACV mCherry inh = qHTS for Stage-Specific Inhibitors of Vaccinia Orthopoxvirus: mCherry Reporter Primary qHTS. Vaccinia virus mCherry reporter infection, fluorescence; about a quarter of the inactives have no number. Potency, µM (doses to about 36.5 µM), without a hit: at the top dose activity change, negative = inhibition, actives largely listed as inhibitors. 0.63% of 310,000 active. AID 720579, 2013; active = well fitted inhibition curve with a large enough effect; inconclusive = small, poorly fitted or top-dose-only effect; inactive = no such curve, though single readings can be large or run the other way; tested in A549 cells; further: nearly all actives have a fitted effect of over 35% in size; inactives centre near -10
Vaccinia Venus = qHTS for Stage-Specific Inhibitors of Vaccinia Orthopoxvirus: Venus Reporter Primary qHTS. Vaccinia virus Venus reporter expression, fluorescence. Potency, µM (doses to about 36.5 µM), for the others: at the top dose activity change, negative = inhibition, most hits filed as inhibitors. 0.46% of 330,000 active. AID 720580, 2013; active means well fitted inhibition curve with a large enough effect; inconclusive means small, poorly fitted or top-dose-only effect; inactive means no such curve, though single readings can be large or run the other way; tested in A549 cells; further: nearly all actives have a fitted effect of over 30% in size; inactives centre near -10
* hit, by the source's call; i = inactive; ? = inconclusive; . = no result given; & = joins results of further samples. On the % scale 0 is the no-effect control and ±100 the full control effect; potency means the concentration at half of the fitted maximal effect.

SMILES	VACV mCherry inh	Vaccinia Venus
Cc1ccc(C)c(OCc2cc(C(=O)N(C)Cc3nccs3)no2)c1	-7%	-11%
Nc1nc(CSC(=S)N2CCN(c3ccccc3)CC2)nc(Nc2ccccc2)n1	-14%	-27%
Cc1cc(C)nc(NS(=O)(=O)c2ccc(NC(=O)C3CC3)cc2)n1	9%	-2%
O=C(O)c1ccc(/C=C(\c2nc3ccccc3[nH]2)c2nc3ccccc3s2)cc1	?	-17%
COc1ccc([C@H]2C[C@@H](n3cc(C4CC4)nn3)[C@H](O)CN2Cc2cccs2)cc1	-1%	-25%
COc1ccc(NC(=O)C(C)n2nc(C)c3c(C)n(-c4ccccc4)nc3c2=O)cc1Cl (stereo not given)	-17%	-14%
COC(=O)c1ccc(NC2=CC(=O)CC(C)(C)C2)cc1	-6%	-15%
CCOC(=O)c1ccc2c(c1)N(C(CC)C(=O)Nc1ccccc1OC)C(=O)c1ccccc1S2 (stereo not given)	-18%	-7%
COc1ccc2nc(N3CCN(C(=O)C4COc5ccccc5O4)CC3)sc2c1 (stereo not given)	i	-14%
Cc1ccc(C(=O)Nc2ccc3nc(SCC(=O)N4CCCc5ccccc54)sc3c2)cc1	-29%	-23%
COc1cccc(NC(=O)CSc2nnc(-c3ccoc3C)n2-c2ccccc2)c1	-17%	-19%
COC(=O)CN(c1ccc(OC)cc1)S(=O)(=O)c1c(C)noc1C	-3%	-12%
CCOC(=O)CSc1nc2c(c(=O)[nH]1)C(C)(CC)Cc1ccccc1-2 (stereo not given)	?	-26%
COc1cccc(C(=O)NC(C)c2nnc3n2CCN(CC=C(C)C)CC3)c1 (stereo not given)	-4%	-17%
O=C1CN(CC(=O)Nc2ccc(SC(F)F)cc2)CCN1	i	-15%
COC(=O)c1cccc(Oc2nc3c(c(=O)n(C)c(=O)n3C)n2C(C)C)c1	i	-8%
Cc1cccc(OCC(=O)N/N=C/CC(C)c2ccccc2)c1C (stereo not given)	-5%	-7%
COc1cc(C(=O)Nc2ccc(-n3c(C)nc4ccccc4c3=O)cc2)cc(OC)c1OC	9%	0%
CC(C)CCNC(=O)c1ccc2c(c1)ncn2C1CCCC1	i	-20%
Cc1cccc(OCCn2c(=S)[nH]c3ccccc32)c1	-18%	-17%
COc1ccccc1/C=C1/C(=O)N(c2ccccc2)N=C1C	i	-18%
O=C(c1cn(Cc2ccccc2F)c2ncccc12)C(F)(F)F	i	-6%
CCCCN(CC)CCNC(=O)c1cn(CCOC)c(=O)c2c1c1ccccc1n2C	-18%	-7%
C[C@@H]1NC(=O)OC1c1ccco1 (stereo not given in full)	i	-15%&-19%
CCN(CC)S(=O)(=O)c1ccc2oc(C(=O)N(C)Cc3ccccc3)c(C)c2c1	-17%	-13%
CCOC(=O)Cn1cc(Cl)c(=O)c(Cl)c1	-4%	-9%
Cn1cc(-c2ccc(C(=O)Nc3cccc(Oc4ccccc4)c3)c3occc23)cn1	8%	-23%
CCCC(=O)Nc1ccccc1Sc1ncnc2scc(-c3ccccc3)c12	-8%	-2%
CC(=O)Nc1nonc1-c1nnc(SCC(=O)Nc2ccc(C)c(Cl)c2)n1-c1ccccc1	-8%	-20%
COc1ccc(C(=O)c2cc3ccc(O)cc3oc2=O)cc1	-19%	-4%
Cc1csc(/N=C/N(C)C)c1C#N	-11%	-8%
CC1CCN(C(=O)C(NS(=O)(=O)c2cccc3nsnc23)c2ccccc2)CC1 (stereo not given)	-12%	-8%
COc1ccc(C(CC(=O)N2CCN(c3ccccc3)CC2)c2c(OC)cc(OC)c3ccc(=O)oc23)cc1 (stereo not given)	-6%	-22%
Cc1nnc(SCCC(=O)Nc2ccc(Cl)cc2)o1	i	-11%
CCOc1cc(CNCc2ccccc2)ccc1OCc1ccc(Cl)cc1	?	?
CN(C)C1CCC(CC2CCc3ccccc32)CC1 (stereo not given)	-15%	-12%
Cc1cnc(C(=O)NCc2ccc(F)cc2)cn1	i	-11%
CCOc1ncccc1C(=O)OCC(=O)c1ccc(F)cc1	-8%	-3%
CCC(c1nnc(SCC(=O)Nc2ccc(C(=O)Nc3ccccc3OC)cc2)o1)N(C)C (stereo not given)	.	?
O=S1(=O)C=C(SCc2cccc(Cl)c2)Nc2ccccc21	-27%	6%
O=C(NC1CCCCC1)C1CCN(C(=O)c2ccc(Cl)cc2)CC1	-6%	0%
Cc1cc(C)c2c(-n3cccc3)c(C(=O)NCC(C)c3ccccc3)sc2n1 (stereo not given)	-27%	-22%
CC(=O)N1[C@H](C)C=C[C@]1(Cc1ccccc1)C(=O)NCc1cc(F)cc(C(F)(F)F)c1	-5%	-21%
COc1cc(NC(=O)Cn2ccn(Cc3ccccc3OC)c(=O)c2=O)cc(OC)c1	-3%	0%
CSc1ccccc1C(=O)Nc1ccc2c(c1)OCO2	-11%	-14%

Reprinted from above (two entries):
SMILES	VACV mCherry inh	Vaccinia Venus
Cc1csc(/N=C/N(C)C)c1C#N	-11%	-8%
CC1CCN(C(=O)C(NS(=O)(=O)c2cccc3nsnc23)c2ccccc2)CC1 (stereo not given)	-12%	-8%

Additional entries follow.
SMILES	VACV mCherry inh	Vaccinia Venus
Cc1cc(N2CCN(Cc3nc(-c4ccc(Cl)cc4)oc3C)CC2)cc(C)n1	-27%	?
O=C(COC(=O)c1n[nH]c2ccccc12)NC(=O)NC1CCCC1	.	-6%
COc1ccc(NC(=O)Cc2c[nH]c3ccccc23)cc1S(=O)(=O)N1CCOCC1	i	-5%
C=CCN(c1ccccc1)S(=O)(=O)c1cccc(C(=O)NCC(c2ccccc2OC)N2CCCC2)c1 (stereo not given)	?	-30%
O=C(O)COc1ccc(NC(=O)c2ccc3c(c2)C(=O)N(C2CCCCC2)C3=O)cc1	i	-22%
CCCc1nc(NCC2CCCO2)c2nnn(Cc3ccccc3)c2n1 (stereo not given)	.	-11%
Cc1cccc(NC(=S)NC(C)C(c2ccccc2)N2CCN(C)CC2)c1C (stereo not given)	-21%	-12%
O=C1C2CCCN2C(c2ccccc2)N1c1ccc(F)cc1 (stereo not given)	-13%	-3%
O=C(c1ccc(Cn2c(=O)[nH]c3ccccc3c2=O)cc1)N1CCN(c2ccccn2)CC1	-14%	-20%
c1ccc2[nH]c(SCc3cn4ccccc4n3)nc2c1	i	-18%
O=C(C1CCCCC1)N1CCCc2ccccc21	.	-11%
COc1ccccc1CNC(=O)[C@H](C)NC(=O)C1CCN(C(=O)[C@@H](N)C(C)C)CC1	-3%	4%
O=C(Nc1ccc(N2CCCCC2)cc1)c1ccc([N+](=O)[O-])o1	?	-24%
COc1ccccc1N1CN(S(=O)(=O)c2ccc(C)cc2)c2nc3ccccc3nc21	i	-3%
CCOC1=C2[C@@H](CN(S(=O)(=O)c3ccc(C)cc3)[C@H]2c2cccc3ccccc23)[C@H]2C(=O)N(Cc3ccccc3)C(=O)[C@H]2C1	-7%	-14%
C[C@@H]1CN([C@H](C)CO)C(=O)CCCn2cc(nn2)CO[C@H]1CN(C)C(=O)Nc1ccc(C(C)(C)C)cc1	12%	-13%
CN(C(=O)c1cccc(NC(=O)Cc2ccc(NC(=O)C3CCN(C(=O)C4CCCC4)CC3)cc2)c1)C1CC1	-7%	-8%
Cc1ccc(S(=O)(=O)Nc2ccccc2C=Nc2cccc(C)c2C)cc1	-18%	-9%
Cc1ccc(S(=O)(=O)N2CCN(S(=O)(=O)c3ccc4c(c3)OCCO4)CC2)cc1	22%	-14%&1%
O=C(CCNC(=O)c1ccc(Cl)cc1)NC1CCCCCC1	-2%	-18%
O=C(COC(=O)c1cccs1)NCC1CCCCC1	i	-2%
CCOC(=O)c1ccc(NC(=O)c2c(C)oc3nc(C)nc(N4CCCC4)c23)cc1	-4%	-18%
COCCN(C(=S)Nc1c(C)cc(C)cc1C)C(C)c1cccnc1 (stereo not given)	-16%	-14%
Cc1ccccc1NC(=O)c1sc2nc3n(c(=O)c2c1C)N=C(c1ccccc1)CS3	-12%	-13%
Cc1ccc2nc(NC(=O)C3CCCN3C(=O)OC(C)(C)C)sc2c1 (stereo not given)	i	-5%
Cc1ccc(Oc2nc(CN3CCOCC3)nc3sc4c(c23)CCC(C)C4)cc1C (stereo not given)	-14%	-14%
O=C(CCC(=O)N1CCSc2ccccc21)Nc1ccc(F)cc1	i	-15%
COc1ccc(C2=NN(C(=O)CCC(=O)O)C(c3cccs3)C2)cc1OC (stereo not given)	-3%	-1%
NC(=O)CCNC(=O)c1ccc(Cl)cc1	-15%	1%
COc1ccc(CNC(=O)c2ccc3c(c2)nc2n3CCOC2)c(OC)c1	-12%	-11%
O=C(Nc1cnn(Cc2ccc(F)cc2)c1)c1cnccn1	.	-2%
C=C(CCC(=O)c1ccccc1)C(=O)c1ccccc1	-17%	?
COc1ccc(NC(=O)N(C2CCCCC2)C(C)c2cccnc2)c(OC)c1 (stereo not given)	.	-11%
CCn1nccc1C(=O)Nc1ccc(S(=O)(=O)NC23CC4CC(CC(C4)C2)C3)cc1	?	?
O=C(CSc1nnnn1-c1ccc(F)cc1F)Nc1ccccc1F	i	-17%
CCOC(=O)c1[nH]c(COC(=O)CCCOc2ccccc2)c(C(=O)OCC)c1C	i	-6%
CCCO/N=C1/C(=O)N(c2ccccc2)c2ccccc21	-10%	-14%
COc1ccccc1CN1CCCC(C(=O)N2CCCCC2)C1 (stereo not given)	-3%	8%
COc1ccc(CCNC(=O)C(=O)Nc2ccc3nc4n(c(=O)c3c2)CCCCC4)cc1OC	2%	0%
N#CC/C(N)=N/Nc1nc2ccccc2nc1Cc1ccccc1	?	8%
O=C(C1=C[C@@H](c2ccc(Br)cc2)C[C@@H](OCCCCO)O1)N1CCN(Cc2ccc3c(c2)OCO3)CC1	-14%	-17%
CCCCN1C(=O)c2[nH]nc(-c3ccccc3O)c2C1c1cc(Br)c(O)c(OC)c1 (stereo not given)	-21%	-24%
Cc1ccoc1C(=O)Nc1ccc2ccccc2c1	-24%	-23%
OC(c1ccccc1)(c1ccccc1)c1nccc2ccccc12	-23%	-5%
COc1ccc(CN2CCOc3ccc(CN4CCC(Oc5cccnc5)CC4)cc3C2)cc1	-12%	-25%

Entries from the list above with a furan ring, fused or not (seven):
SMILES	VACV mCherry inh	Vaccinia Venus
COc1cccc(NC(=O)CSc2nnc(-c3ccoc3C)n2-c2ccccc2)c1	-17%	-19%
C[C@@H]1NC(=O)OC1c1ccco1 (stereo not given in full)	i	-15%&-19%
CCN(CC)S(=O)(=O)c1ccc2oc(C(=O)N(C)Cc3ccccc3)c(C)c2c1	-17%	-13%
Cn1cc(-c2ccc(C(=O)Nc3cccc(Oc4ccccc4)c3)c3occc23)cn1	8%	-23%
O=C(Nc1ccc(N2CCCCC2)cc1)c1ccc([N+](=O)[O-])o1	?	-24%
CCOC(=O)c1ccc(NC(=O)c2c(C)oc3nc(C)nc(N4CCCC4)c23)cc1	-4%	-18%
Cc1ccoc1C(=O)Nc1ccc2ccccc2c1	-24%	-23%

(further entries)
SMILES	VACV mCherry inh	Vaccinia Venus
COc1cc2nc(Cl)nc(NC3CC3)c2cc1OC	-29%	?
CC(CC(=O)NCc1ccc(Cl)cc1)CC1=NS(=O)(=O)c2ccccc2N1 (stereo not given)	0%	-10%
COc1ccc2c(c1)c(CC(=O)Nc1cc(C)cc(C)c1)c(C)n2C(=O)c1ccc(Cl)cc1	-13%	-13%
CCCOc1ccc(C2C(=O)N(C3CCCCCC3)CC(=O)N2CCCOCC)cc1OC (stereo not given)	-11%	-4%
O=C(Nc1nnc(S(=O)(=O)N2CCCc3ccccc32)s1)c1ccc(Cl)cc1	-10%	-25%
COc1cc(C(=O)NC(CCSC)C(=O)OCC(=O)NC(=O)C2CCCCC2)cc(OC)c1OC (stereo not given)	-14%	-5%
NS(=O)(=O)c1ccc(NC(=O)CCCCCN2C(=O)c3ccccc3C2=O)cc1	-12%	-1%
CC1=NN(c2ccccc2)C(=O)C1(C)[N+](=O)[O-] (stereo not given)	-13%	-10%
COc1ccc(S(=O)(=O)N2CCN(C(=O)COc3ccc(C)c(C)c3)CC2)cc1OC	-20%	-15%
O=C(NCCSc1ncc(-c2ccccc2)[nH]1)c1ccco1	-1%	-13%
COc1ccc(NC(=O)C(CC(C)C)NC(=O)C2CCCCC2)c(OC)c1 (stereo not given)	-1%	-8%
COc1ccccc1NC(=O)Nc1ccc(Cl)c(S(=O)(=O)Nc2ccccc2OC)c1	-8%	-7%
CC(C)(C)C1CCC(C(=O)OCC(=O)Nc2ccc3[nH]c(=O)[nH]c3c2)CC1 (stereo not given)	-1%	-24%
Cc1cccc2sc(N(CCCN3CCOCC3)C(=O)CS(=O)(=O)c3ccc(F)cc3)nc12	-25%	-14%
Cc1ccc(CN2c3ccccc3-c3nc(SCC(=O)NCc4ccccc4)ncc3S2(=O)=O)cc1	-23%	?
COc1ccc(CNc2cccc3[nH]c(C(F)(F)F)nc23)cc1OC	-14%	-24%
CCN(CC)CCn1c(=N)n(CCOc2ccccc2Cl)c2ccccc21	?	?
Cc1ccc(CSc2nc3ccc(NC(=O)COc4ccccc4)cc3s2)cc1	?	?
NC(=O)c1cc([N+](=O)[O-])ccc1NCc1ccc(F)cc1	-21%	-21%
Cc1ccc(S(=O)(=O)N2C[C@H]3C(=O)C[C@@H](c4ccccc4)N(S(=O)(=O)c4ccc(Br)cc4)[C@H]3C[C@H]2c2ccccc2)cc1	15%	-3%
O=S(=O)(c1ccc(Br)cc1)c1nc(-c2ccccc2)oc1N1CCOCC1	-1%	-9%

Screening data (PubChem)

Outcome played no part in choosing rows, and some 0.82% of all compounds hit somewhere here.
